Source: PubChem BioAssay
PINK1 modulator: modulators of PINK1 expression; AID 624263; Potency, µM (top dose mostly 76.6 µM), inactives show at the top dose activation (PINK1 increase), actives largely listed as activators; actives 0.2% (n = 410,000); PINK1 immunofluorescence, high-content cytometry, 24 h; active = well fitted activation curve with a large enough effect; inconclusive = small, poorly fitted or top-dose-only effect; inactive = flat fitted curve, though single readings scatter; cell line not stated here;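 also: potency is read from the fitted curve at half-maximal effect; % of control where 0% means no effect; nearly all actives have a fitted effect of over 65% in size; a mitochondrial uncoupler was the plate control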
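Stable cell line, 250 cells/well, 12 h attachment; compounds pinned at 5 concentrations, 24 h; CCCP control. Fixed with nuclear dye, primary antibodies 12 h at 10 degrees C, secondary plus cell stain; laser-scanning cytometer read.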
D2 agonist: agonists of human D2 dopamine receptor (beta-arrestin) | DiscoveRx PathHunter D2 beta-arrestin, luminescence, 90 min; 100% = 57 uM dopamine signal | activation, % (no concentration beside the values) | actives 0.084% (n = 360,000) | AID 624465; in the data active = activation above about 40%; inconclusive = about 15% to 40%; inactive = below about 15%; also: compound concentration not given in the record; the text of the record calls up to 30% inactive
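Agonist mode: compounds alone added to overnight-plated D2 PathHunter cells for 90 min at 37 C, with 57 uM final dopamine (EC100) defining full response. Beta-arrestin recruitment detected by chemiluminescent reagent, read after 1 h at ambient temperature.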
Six1-Eya2 inh: blocks human Six1 binding to Eya2; Q15475+O00167; AlphaScreen GST-Six1/His-Eya2 binding, biochemical; stronger effect = lower value; control for the full effect not named in the record; activity change, % (concentration not given with the values); actives 0.56% (n = 360,000); in the data active = activity change below about -65%; inconclusive = about -30% to -65%; inactive = above about -30%; also: % is scaled to controls: 0 for no effect and ±100 for the full control effect
Target sequence (O00167 whole entry, looked up): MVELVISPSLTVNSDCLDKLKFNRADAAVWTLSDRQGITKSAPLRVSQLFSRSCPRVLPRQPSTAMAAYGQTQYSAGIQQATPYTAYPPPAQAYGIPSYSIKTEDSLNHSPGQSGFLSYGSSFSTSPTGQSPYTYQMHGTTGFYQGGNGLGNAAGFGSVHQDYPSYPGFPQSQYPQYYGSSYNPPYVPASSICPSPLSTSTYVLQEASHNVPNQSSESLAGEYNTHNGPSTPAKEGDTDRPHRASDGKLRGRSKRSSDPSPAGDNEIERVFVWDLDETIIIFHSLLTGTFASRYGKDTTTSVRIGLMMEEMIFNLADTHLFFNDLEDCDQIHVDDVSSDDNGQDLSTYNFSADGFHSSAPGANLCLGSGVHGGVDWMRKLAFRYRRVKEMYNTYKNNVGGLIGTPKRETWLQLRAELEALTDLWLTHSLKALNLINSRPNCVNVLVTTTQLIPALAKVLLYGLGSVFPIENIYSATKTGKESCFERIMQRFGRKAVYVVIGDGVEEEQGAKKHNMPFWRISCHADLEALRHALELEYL
Target sequence (Q15475 whole entry, looked up): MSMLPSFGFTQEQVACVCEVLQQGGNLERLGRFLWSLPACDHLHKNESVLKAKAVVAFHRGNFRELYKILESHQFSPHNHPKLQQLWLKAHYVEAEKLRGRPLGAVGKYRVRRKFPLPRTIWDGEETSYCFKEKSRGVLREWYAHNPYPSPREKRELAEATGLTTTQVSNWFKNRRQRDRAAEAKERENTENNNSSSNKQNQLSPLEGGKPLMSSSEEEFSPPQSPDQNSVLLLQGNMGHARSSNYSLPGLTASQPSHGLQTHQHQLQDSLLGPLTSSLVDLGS
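Homogeneous AlphaScreen proximity assay pairing GST-Six1 with His-tagged Eya2 (added as 5X mix: 250 nM and 500 nM) in 50 mM Tris pH 8.0, 300 mM NaCl, 1 mM TCEP. Glutathione donor and nickel acceptor beads; 1 h, 37 °C, dark.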
TRPV1 PAM: human TRPV1 potentiation; Q8NER1; TRPV1-expressing cells, Fluo-8 calcium influx, capsaicin EC20 potentiation; host cell line not named in the record; control for the full effect not named in the record; potentiation, % at 8.33 µM; actives 0.02% (n = 320,000); AID 540277; active means potentiation above 80%; inconclusive means 30% to 80%; inactive means below 30%; also: 0% is about no effect
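TRPV1-expressing cells were cultured overnight at 35.5C and loaded with Fluo-8 calcium dye for 40 to 90 min at room temperature. After a 10 s baseline, compound was added and calcium influx was read kinetically for 3 min (ex 480/em 520 nm).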
Sfp inh: Sfp phosphopantetheinyl transferase inhibition; Potency, µM, for inactives: max response, negative = inhibition, usual class: inhibitors; actives 3.5% (n = 310,000); Biochemical Sfp PPTase activity, qHTS; Q9F4F7; active = well fitted inhibition curve with a large enough effect; inconclusive = small, poorly fitted or top-dose-only effect, or another doubt; inactive = no such curve, though single readings can be large or run the other way;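 also: the enzyme is Sfp with the accession as filed and its product quenches rhodamine fluorescence; potency is read from the fitted curve at half-maximal effect; 0% = enzyme reaction without inhibitor and -100% = no enzyme wells; top concentration of the series not given in the record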
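Sfp 15 nM + cpd, 15 min RT; start w/ rhodamine-CoA 5 uM, BHQ-2-YbbR 12.5 uM (final); 50 mM Hepes pH 7.6, 10 mM MgCl2, 0.01% NP-40, 0.01% BSA; read 525/598 nm at 0 and 30 min.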
CtBP-E1A blk: blocks the CtBP interaction with E1A; AlphaScreen GST-E1A/His-CtBP binding, 1536-well; stronger effect = lower value; control for the full effect not named in the record; activity change, % (test concentration not listed); actives 0.49% (n = 340,000); AID 651724; in the data active means activity change below about -65%; inconclusive means about -30% to -65%; inactive means above about -30%; also: % is scaled to controls: 0 for no effect and ±100 for the full control effect; compound concentration not given in the record
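AlphaScreen with 125 nM GST-E1A and 125 nM His-CtBP (5X stocks) in Tris pH 8.0, 300 mM NaCl, BSA, Tween 20, TCEP. Compounds preincubated 2 h at 37 deg C, then glutathione donor/nickel acceptor beads added for 1 h at 37 deg C in dark.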
D2 PAM: human D2 receptor positive allosteric modulation; P14416; actives 0.23% (n = 360,000); AID 624464; potentiation, % (concentration not given with the values); DiscoveRx D2 beta-arrestin cells, luminescence, 90 min; 100% = 57 uM dopamine signal; active = potentiation of 50% or more; inconclusive = 30% to 50%; inactive = 30% or less;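 also: compound concentration not given in the record; tested on top of an EC20 dose of dopamine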
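D2 cells co-treated with compound plus 50 nM dopamine (EC20) for 90 min at 37 deg C to detect potentiation. Beta-arrestin recruitment was read as enzyme-fragment luminescence after 1 h at ambient temperature. Full response was set by 57 uM dopamine.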
* hit, by the source's call; ? = inconclusive; . = not tested or not shown; [ ] = dose if it differs, or a comment. Rows are unselected; about 3.7% have a hit in one of these screens.

SMILES | PINK1 modulator | D2 agonist | Six1-Eya2 inh | TRPV1 PAM | Sfp inh | CtBP-E1A blk | D2 PAM
COc1cc(OC)c(C(=O)NCc2ccco2)cc1OC | 2.4% | -2.2 | -10 | ? | -3% | -10 | -3
Cc1ccc(S(=O)(=O)N(CC(=O)N2CCN(c3ccccc3F)CC2)C2CCCCC2)cc1 | -0.9% | -5.1 | -2 | 5 | 1% | -7 | -11
CCC(=Cc1ccccc1OC)c1ccncc1 | 7.6% | 4.4 | 7 | . | . | 2 | -4
O=S(=O)(NCC1CCCO1)c1ccc(-c2ccc(S(=O)(=O)NCC3CCCO3)cc2)cc1 (stereo not drawn) | 11% | -11 | 5 | 15 | 20% | 8 | 19
O=C(NCCCN1CCCC1=O)c1cc2nc(-c3ccco3)cc(C(F)(F)F)n2n1 | 1.6% | -2.3 | -4 | 18 | 24% | -12 | -4
Cc1cc(C)cc(OCC(=O)Nc2nc3ccc([N+](=O)[O-])cc3s2)c1 | 0.7%[38.3 µM] | -3.3 | 0 | 1 | 0% | -12 | -5
CN1CCCC(OC(=O)/C(C#N)=C/c2ccccc2)C1 (stereo not drawn) | -0.6% | -2.4 | 2 | 1 | 3% | -9 | -14
CSc1nc(C)cc(Oc2ccc(OCCOc3ccccc3)nn2)n1 | -3.8% | 2.1 | 3 | 0 | 5% | 7 | 0
Cc1cc(-c2ccc(Cl)cc2)oc(=O)c1NC(=O)c1ccccc1 | 11% | -3.2 | -2 | -14 | 11% | 3 | -12
CCOc1ccc(OCCC(=O)OCC(=O)N2CCN(S(=O)(=O)c3ccc(C)cc3C)CC2)cc1 | 0.9% | -3.9 | -12 | . | . | 7 | -27
CCOC(=O)C1=CNS(=O)(=O)NC1c1ccc(C(F)(F)F)cc1 (stereo not drawn) | 0.4% | 0.3 | 6 | . | . | 3 | .
O=C(c1ccccc1)N1CCCc2ccccc21 | -0.1% | -3.1 | 1 | -7 | 14% | 7 | -13
NC(=O)CC(NC(=O)Cc1ccc(Br)cc1)c1ccc(NCc2ccc(F)cc2)c([N+](=O)[O-])c1 (stereo not drawn) | 20% | -2.1 | -3 | 3 | ? | 3 | -4
Cc1ccc(S(=O)(=O)Nc2ccc3c(c2)OCCO3)cc1C | 1.4% | 2.1 | 0 | 9 | 3% | 6 | -7
CCOC(=O)c1c(-c2ccccc2)oc2ccc(O)c(CN3CCCC3)c12 | . | -1.6 | -1 | -1 | 1% | -13 | -34
O=C(CCn1c(=O)[nH]c2ccsc2c1=O)NCc1ccc(F)cc1 | 2.9% | -4.9 | 0 | -5 | 14% | -3 | -9
CC(C)(Cc1ccc(O)cc1)NC(=O)CC(=O)N=Nc1c(O)[nH]c2ccc(Br)cc12 | -1.4% | 2.2 | -17 | 10 | 7% | -8 | -11
C[C@H]1CC[C@@]2(O[C@H](CCO)C[C@H](O)[C@H]2O)O1 | 0.1% | -1.4 | 6 | . | . | 10 | -11
O=C(O)Cn1c(O)c(C2=c3ccccc3=NC2=O)sc1=O | 0.3% | 0.6 | 0 | -10 | -23% | -14 | -20
Nc1cc(S(=O)(=O)N2CCOCC2)ccc1N1CCCCC1 | 1.1% | 5.0 | -14 | . | . | -9 | -3
N/C(=N/OC(=O)c1ccccc1F)c1nonc1N | 3.2% | 2.8 | 3 | -6 | 15% | . | 1
CC(C)(C)c1ccc(OCC(=O)NNC(=S)NC(=O)c2ccco2)c(Br)c1 | 0.3% | -4.9 | -3 | 11 | -4% | -12 | -6
Cc1ccc(-c2nnc(SCC(=O)CC(=O)Nc3ccccc3)n2-c2ccccc2)cc1 | . | 0.7 | -4 | -4 | 2% | 1 | -29
CCS(=O)(=O)N1Cc2ccccc2CC1C(=O)NC(C)C12CC3CC(CC(C3)C1)C2 (stereo not drawn) | -0.2% | 0.1 | -1 | 1 | -2% | -5 | 3
CCCn1c(=O)c(C(=O)NCc2ccccc2OC)c(O)c2ccccc21 | 5.8% | -2.7 | 3 | -10 | -3% | 9 | -2
CCC(C)[C@H](NC(=O)NCc1cccc(OC)c1)C(=O)OC (stereo partly drawn) | 1.2% | -3.7 | -1 | 1 | 5% | -2 | -6
O=C(/C=C/c1ccccc1Cl)Nc1ccncc1 | 0.2% | 1.5 | 1 | -6 | -11% | -16 | -12
CCCCC1=CC2=C(c3ccco3)C(=O)C(C)(OC(=O)c3ccc(OC)cc3)C(=O)C2=CN1CCCCO (stereo not drawn) | 1.2% | 2.3 | -3 | 13 | ? | -24 | -26
Cc1ccc(C(=O)CSC2=C(C#N)C(c3ccco3)CC(=O)N2)c(C)c1 (stereo not drawn) | 1.3%[38.3 µM] | -1.4 | -19 | -16 | 50µM* | -9 | -8
COc1ccccc1/C=c1\sc2nc(-c3ccco3)nn2c1=O | -3.4% | -3.6 | -9 | 10 | 2µM* | 0 | -13
COc1ccc(C)cc1NC(=O)CN(C)S(=O)(=O)c1ccc2c(c1)n(C)c(=O)c(=O)n2C | 0.5% | -13 | -1 | 7 | 14% | 4 | -4
Cc1cc(S(=O)(=O)N(Cc2cccs2)Cc2ccccc2F)ccc1-n1cnnn1 | 0.0% | 4.1 | 2 | 0 | 19% | -1 | 9
CCOc1ccc(C2NC(=O)NC(C)=C2[N+](=O)[O-])cc1OC (stereo not drawn) | -0.9% | -2.4 | 0 | 16 | 12% | 5 | -4
Cc1nonc1N1CCN(Cc2cn[nH]c2-c2ccc3c(c2)OCO3)CC1 | -0.2% | -2.7 | 6 | 10 | 10% | 8 | -13
CC(NC(=O)CN(c1cccc(C(F)(F)F)c1)S(=O)(=O)c1ccc(Cl)c([N+](=O)[O-])c1)c1ccccc1 (stereo not drawn) | -3.0% | -3.3 | -4 | -4 | 35%[activator] | 15 | 18
CCOC(=O)c1c(C)nc(C)c(C(=O)OCC)c1-c1ccccc1 | 2.9%[38.3 µM] | -3.8 | 1 | -8 | 45µM* | 7 | -4
COc1cccc(CNC(=O)COC(=O)CCc2cc(OC)c(OC)c(OC)c2)c1 | -2.3% | -5.5 | 1 | 1 | . | -10 | 24
CCOC(=O)C1(CC2CCCCO2)CCN(S(=O)(=O)c2ccsc2)CC1 (stereo not drawn) | 0.1% | 0.7 | 16 | -19 | -8% | -16 | -8
CCCCCN(C(=O)CCC(=O)OCc1ccc(Cl)cc1Cl)c1c(N)n(CCCC)c(=O)[nH]c1=O | 8.0% | -0.3 | -7 | 1 | . | 0 | -6
Cc1ccccc1N1CCN(C2CCCN(C(=O)c3ccccn3)C2)CC1 (stereo not drawn) | 2.1% | 2.3 | 0 | 1 | 9% | -6 | -22
Cc1ccccc1C(=O)NNC(=S)NC(=O)c1ccc(Cl)cc1Cl | . | -3.4 | -6 | -10 | 6% | 1 | -12
Cc1cc(C)n2c(Nc3ccc4c(c3)OCCO4)c(CC(C)C)nc2n1 | -0.8% | . | -5 | . | . | 0 | .
CCN(CC(=O)Nc1ccccc1OC)C(=O)CC1CC2CCC1C2 (stereo not drawn) | -1.1% | -3.9 | 5 | -16 | . | -1 | 12
O=C(O)c1cc(-c2cccc(Cl)c2)nc2nc(N3CCCCC3)sc12 | 3.2% | -2.0 | -5 | -13 | ? | -2 | -9
O=C(c1ccc(N2CCOCC2)cc1)c1cccs1 | 4.6%[38.3 µM] | -2.4 | -1 | -18 | 7% | 7 | -7
CCc1nc(N2CCN(C(C)=O)CC2)c2c3c(sc2n1)CC(C(C)(C)C)CC3 (stereo not drawn) | 6.0% | 6.7 | -3 | -8 | -22% | . | 22
C[C@H]1CN([C@@H](C)CO)C(=O)c2cc(Br)cnc2O[C@@H]1CN(C)S(=O)(=O)c1cn(C)cn1 | 1.3% | 2.7 | -2 | . | . | 4 | 7
